Screening data as filed in PubChem.
Sfp PPTase inh – blocks B. subtilis Sfp PPTase activity; Q9F4F7; Biochemical Sfp PPTase activity, qHTS; Potency, µM, inactives show max response, negative = inhibition, hits mostly inhibitors; 3.5% of 310,000 active; active = well fitted inhibition curve with a large enough effect; inconclusive = small, poorly fitted or top-dose-only effect, or another doubt; inactive = no such curve, though single readings can be large or run the other way;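 note: the enzyme is Sfp with the accession as filed and its product quenches rhodamine fluorescence; potency is the fitted concentration of half-maximal effect; 0% = enzyme reaction without inhibitor and -100% = no enzyme wells; top concentration of the series not given in the record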
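Sfp 15 nM + cpd, 15 min RT; start w/ rhodamine-CoA 5 uM, BHQ-2-YbbR 12.5 uM (final); 50 mM Hepes pH 7.6, 10 mM MgCl2, 0.01% NP-40, 0.01% BSA; read 525/598 nm at 0 and 30 min.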
gsp ag – activates gsp, the McCune-Albright syndrome mutation | gsp mutant cells, cAMP HTRF, 30 min; control for the full effect not named in the record | 0.13% of 340,000 active | AID 624287 | Potency, µM (series often up to 76.9 µM), for the others: at the top dose activation (cAMP increase), most hits filed as activators; active = well fitted activation curve with a large enough effect; inconclusive = small, poorly fitted or top-dose-only effect, or another doubt; inactive = no such curve, though single readings can be large or run the other way; cell line not stated here;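 note: phosphodiesterase inhibitor Ro 20-1724 added with compounds to block cAMP breakdown; potency is the fitted concentration of half-maximal effect; nearly all actives have a fitted effect of over 60% in size; about a fifth of the inactives were tested at one dose only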
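Cells stably selected in G418 were plated at 2000/well, grown 16-24 hr, then given compounds in DMSO with the PDE inhibitor […] (300 uM solution added) for 30 min at 37C; cAMP was read by HTRF.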
Menin MLL FP FL – displaces fluorescein MLL peptide from human menin. Fluorescence polarization, fluorescein-MLL peptide displacement from menin. FP activity change, % at 61.4 µM. 290,000 tested, under 10 active. AID 1766; inconclusive = falling polarisation curve, or a change in total fluorescence; inactive = total fluorescence flat and polarisation flat or rising; no compound was filed as active; the % refers to the polarisation; negative = inhibition;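 note: % of control where 0% means no effect; inhibitors lower the polarisation; unlabelled MLL peptide was the positive control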
gsp antag – antagonizes gsp, the McCune-Albright syndrome mutation; gsp-mutant cells, cAMP HTRF, 30 min; control for the full effect not named in the record; Potency, µM (titrated, usually from 76.9 µM), for the others: at the highest dose activity change, negative = inhibition, actives largely listed as inhibitors; 0.4% of 340,000 active; active = falling curve of any shape with a large fitted effect; inconclusive = falling curve, mostly with a smaller effect; inactive = flat or rising curve; cell line not stated here;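 note: intracellular cAMP measured with PDE inhibitor Ro 20-1724 present during compound exposure; potency is the fitted concentration of half-maximal effect; % is set by controls: 0 for no effect and ±100 for the full control effect; nearly all actives have a fitted effect of over 65% in size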
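Cells in G418 medium, seeded 16-24 h, 37C; buffer exchange to DPBS + 1 mM CaCl2, 0.5 mM MgCl2, 0.05% BSA; cpds in DMSO + […] (300 uM stock), 30 min 37C; HTRF cAMP detection.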
PINK1 expr mod – modulators of PINK1 expression | PINK1 immunofluorescence, high-content cytometry, 24 h | Potency, µM (doses to about 76.6 µM), for inactives: top-dose activation (PINK1 increase), actives largely listed as activators | 0.2% of 410,000 active | AID 624263; active = well fitted activation curve with a large enough effect; inconclusive = small, poorly fitted or top-dose-only effect; inactive = flat fitted curve, though single readings scatter; cell line not stated here;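 note: potency is the fitted concentration of half-maximal effect; % of control where 0% means no effect; nearly all actives have a fitted effect of over 65% in size; a mitochondrial uncoupler was the plate control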
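Fluorescence from anti-PINK1 antibody, together with nuclear and cell stains, was scanned on a laser-scanning cytometer. Before staining, stable-line cells were incubated 24 hours with compounds at 5 concentrations; primary antibody 12 h at 10 degrees C.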
ClpP mod – qHTS Assay for Activators of ClpP | purified B. subtilis ClpP, FRET peptide cleavage, 20 min | Potency, µM (doses to about 57.5 µM), for inactives: at the top dose activity change, negative = active | 1.9% of 340,000 active; active = well fitted falling curve with a large enough effect; inconclusive = small, poorly fitted or top-dose-only effect; inactive = no such curve, though single readings can be large or run the other way; note: potency is the fitted concentration of half-maximal effect; the source files actives as falling curves though it sought activators and does not explain the sign; nearly all actives have a fitted effect of over 65% in size; many hits overshoot -100%
Target sequence (P80244 whole entry, looked up): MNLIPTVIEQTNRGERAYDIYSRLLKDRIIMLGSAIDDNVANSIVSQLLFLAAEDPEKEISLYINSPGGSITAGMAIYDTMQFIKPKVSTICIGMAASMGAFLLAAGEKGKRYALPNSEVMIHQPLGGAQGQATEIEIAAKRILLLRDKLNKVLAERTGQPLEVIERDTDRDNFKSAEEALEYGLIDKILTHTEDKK
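FRET quenching reversal measured ClpP activation: 10 microg/mL B. subtilis ClpP at pH 8 with the FRET-FV decapeptide, read at 430 nm after 320 nm excitation. The 20-min minus 0-min signal was scaled between DMSO/no-enzyme wells and ADEP (5.8 microM final).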
D2 ag – activates the human D2 dopamine receptor | P14416 | DiscoveRx PathHunter D2 beta-arrestin, luminescence, 90 min; 100% = 57 uM dopamine signal | activation, % (test concentration not listed) | 0.084% of 360,000 active; in the data active = activation above about 40%; inconclusive = about 15% to 40%; inactive = below about 15%; note: compound concentration not given in the record; the text of the record calls up to 30% inactive
Target sequence (P14416 whole entry, looked up): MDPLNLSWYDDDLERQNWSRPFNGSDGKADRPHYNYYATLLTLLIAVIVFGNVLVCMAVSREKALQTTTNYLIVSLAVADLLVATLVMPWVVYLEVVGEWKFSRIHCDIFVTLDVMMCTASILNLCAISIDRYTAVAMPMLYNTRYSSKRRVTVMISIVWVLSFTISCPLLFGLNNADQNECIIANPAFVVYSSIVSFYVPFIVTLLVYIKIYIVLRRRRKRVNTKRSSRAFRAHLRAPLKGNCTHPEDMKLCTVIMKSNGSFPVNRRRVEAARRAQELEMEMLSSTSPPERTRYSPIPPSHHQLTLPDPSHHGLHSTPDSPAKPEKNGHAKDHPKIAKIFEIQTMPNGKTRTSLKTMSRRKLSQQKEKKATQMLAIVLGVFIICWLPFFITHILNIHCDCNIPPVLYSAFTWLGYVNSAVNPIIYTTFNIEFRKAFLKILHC
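DiscoveRx PathHunter D2 beta-arrestin cells (2,100/well) attached overnight, then compound-stimulated 90 min at 37 C in HBSS/10 mM HEPES/0.1% Tween-20 buffer; beta-galactosidase complementation read by luminescence after 1 h at ambient temperature. Dopamine 57 uM final (EC100) as control.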
The depositor's hits bear a star; ? = inconclusive; / = no result given; & = joins results of further samples; [ ] = another dose, or the depositor's remark.

molecule	Sfp PPTase inh	gsp ag	Menin MLL FP FL	gsp antag	PINK1 expr mod	ClpP mod	D2 ag
Cc1ccc(-n2c(SCC(=O)Nc3ccc(C(=O)O)cc3)nnc2-c2ccncc2)cc1	24%	-11%[15.4 µM]	4.4	1%	3.0%	/	-2.8
CC(C)Cc1nnc(NC(=O)c2cccc(S(=O)(=O)N3CCOCC3)c2)s1	/	-55%[inhibitor]	/	-16%	-1.2%	1.0%	-2.0
CN1CCN(NC(=O)c2ccc(Cl)s2)CC1	25%	0%[15.4 µM]	-6.7	10%	1.5%	-1.5%	-3.9
O=C(Cc1csc2ccccc12)NCC1CC1	/	/	/	/	-0.5%	-4.8%	15
COC(=O)c1ccccc1NC(NC(=O)c1ccco1)C(=O)c1ccccc1 (stereo unspecified)	-24%	9%	1.1	-4%	-3.8%[38.3 µM]	-21%	8.5
COCCNc1nc(NCCCN2CCCC2=O)c2sc(-c3ccccc3)cc2n1	/	/	/	/	1.3%	4.6%	-5.1
O=C(COc1cccc(Cl)c1)Nc1ccc2c(c1)CCC2	?	-7%	-0.1	-1%	0.9%	-2.4%	0.2
NC1=NC(=O)/C(=C/c2ccc(Cl)cc2Cl)S1	?	-28%	-1.1	10%	3.9%	/	-1.0
CC(=O)N1CCCc2cc(S(=O)(=O)Nc3ccccc3C)ccc21	19%	18%	-0.8	-2%	-0.6%	/	2.9
CCc1noc(C)c1C(=O)OCC(=O)NC(C)c1ccccc1 (stereo unspecified)	/	24%	/	-5%	-0.2%	-2.3%	-3.4
O=C(Nc1ccc2c(c1)OCO2)c1ccc(Br)s1	8%	13%	1.0	-22%	?	1.4%	0.5
COc1ccc(N(C(C)=O)S(=O)(=O)c2cc(OC)ccc2OC)cc1	15%	-12%	0.5	3%	-1.1%	-1.3%	-1.7
COc1ccc(C2(NC(C)=O)CCN(C(=O)CCC(=O)O)CC2)cc1	13%	3%	3.3	17%	0.9%	0.8%	0.5
COc1ccccc1CNc1ncccn1	79µM*	-43%[inhibitor]	0.8	-8%	2.3%	/	-1.8
Cc1nn(Cc2cccc(C(=O)NC34CC5CC(CC(C5)C3)C4)c2)c(C)c1Br	-12%	0%	-0.1	?	-0.1%	-5.1%	-3.3
Cn1c(=O)c2c(nc(Sc3ncccn3)n2Cc2ccc(Cl)cc2)n(C)c1=O	-13%	-84%	0.0	-4%	-0.6%	-4.2%	-2.9
Cc1nc(N2CCN(S(=O)(=O)c3ccccc3)CC2)c2c3c(sc2n1)CC(C)CC3 (stereo unspecified)	-7%	-36%[inhibitor]	-2.5	18%	2.3%	-18%	-5.1
COc1ccc(NC(=S)N2CCN(C(c3ccccc3)c3ccccc3)CC2)cc1OC	16%	2%	1.9	?	0.5%	0.4%	-2.3
CC[n+]1c(/C=C/C=C/N(C(C)=O)c2ccccc2)sc2cc(OC)ccc21	45µM*	33%	?	3%	?	-0.7%	12
O=C(CO/N=C\c1ccccc1)Nc1ccccc1C(=O)N1CCOCC1	-1%	0%	3.2	1%	1.8%	0.4%	-2.0
Cc1ccc(NC2=C(N3CCOCC3)C(=O)c3ccccc3C2=O)cc1	-9%	-5%	1.8	?	-4.2%[38.3 µM]	4.4%	3.6
COc1ccc(C(=O)N2CCC[C@@]3(CCN(Cc4ccncc4)C3)C2)cc1	0%	/	-1.8	/	0.1%	/	/
COc1cc(=O)n(C)c2c(OCC(O)C(C)(C)O)cccc12 (stereo unspecified)	8%	/	-1.4&19	-1%	0.3%	0.6%	-2.6
Cc1cccc(NC2=NC(=S)N(c3cccc(C(=O)O)c3)C23CCCCC3)c1	20%	-62%[inhibitor]	0.7	-27%	0.0%	0.0%	-5.3
Cc1cc(C(=O)CSc2n[nH]c(N)n2)c(C)n1-c1ccc2c(c1)OCO2	-9%	3%	2.3	1%	-1.1%	0.4%	0.3
Cn1c(SCC(=O)Nc2nccs2)nnc1-c1ccccn1	-4%	-5%	-0.2	4%	-0.5%	0.7%	-2.4
Cc1cnc(C(=O)OCC(=O)c2ccc(C)s2)cn1	/	24%	/	2%	1.5%	0.1%	-2.6
C[C@H]1CCC[C@]2(CC(=O)c3cc(F)ccc3O2)C1	/	/	/	8%	20%	3.7%	-2.0
O=C1NC2=C(C(=O)CCC2)C(c2ccc([N+](=O)[O-])cc2)N1 (stereo unspecified)	3%	-3%	-4.4	2%	0.6%	/	1.1
CCC(C(=O)N1CCN(C(=O)c2ccco2)CC1)c1ccccc1 (stereo unspecified)	11%	0%	0.5	11%	-1.8%	0.4%	0.1
COc1ccc(C)cc1NC(=O)CSc1nnc(-c2ccco2)n1Cc1ccco1	-19%	-5%	-1.4	-7%	-0.1%	-3.8%	1.7
CC(C)=CCc1cc([C@@H]2COc3c(ccc4c3C=CC(C)(C)O4)C2)c(O)cc1O	/	/	/	-4%	-1.0%	-6.7%	7.2
CC(C)(C)C(=O)C1=C(O)C(=O)N(Cc2ccccc2)C1c1ccccc1Cl (stereo unspecified)	35%[activator]	?	1.0	14%	1.4%	-1.5%	2.7
COC(=O)c1ccccc1NC(=O)c1cc(-c2ccco2)on1	3%	-42%[inhibitor]	20	-1%	8.8%	/	1.1
O=C(Nc1ccc(C(=O)NCCCN2CCN(c3ccc(F)cc3)CC2)cc1)C1=CSCCO1	6%	?	/	5%	1.5%	-0.2%	11
Cn1cc(CN2CCCC(CO)C2)c(-c2ccc(Oc3ccccc3)cc2)n1 (stereo unspecified)	16%	1%	-2.1	0%	-0.5%	-1.6%	-4.4
Cc1ccc(-c2csc(N3CCN(S(=O)(=O)c4ccc5c(c4)NC(=O)CO5)CC3)n2)cc1	-2%	8%	5.8	?	6.6%	-0.8%	-2.1
Cc1cc(C)n(C(=O)CCCCCCCC(=O)n2nc(C)cc2C)n1	3%	-12%	0.7	7%	/	-1.6%	-0.3
CCCc1cc(=O)[nH]c(SCC(=O)N2N=C(c3ccc(Cl)cc3)CC2c2ccco2)n1 (stereo unspecified)	?	-19%	27	12%	-3.0%	-1.8%	-5.4
CC(=O)C(Sc1nnnn1-c1ccc(O)cc1)c1ccccc1 (stereo unspecified)	-8%	-16%	7.7	-17%	-2.1%	-0.4%	?
CC(=O)NCCc1nc2cc(NC(=O)Nc3ccccc3)ccc2n1C	5%	?	4.0	-1%	0.1%	1.2%	0.5
CN(Cc1cccs1)S(=O)(=O)c1cccs1	0%	-2%	2.7	-12%	?	-2.5%	-4.4
N#CC1=C(N)OC2=C(C(=O)CC(c3ccccc3)C2)C1c1ccoc1 (stereo unspecified)	3%	?	9.7	20%	3.9%	1.5%	-5.3
Cc1ccc(CN2C(=O)CCC2(C)C(=O)NCc2cccnc2)cc1 (stereo unspecified)	7%	-7%	-2.0	-6%	-0.7%	0.3%	-0.7
CC(=O)n1cc([C@H]2C=C(C(=O)N3CCOCC3)O[C@@H](OCc3ccc(CO)cc3)C2)c2ccccc21	-3%	13%	5.1	-1%	-0.7%	-2.2%	6.2
COc1ccc(-c2cc(-c3ccccc3)c(C#N)c(=S)[nH]2)cc1	?	?	-2.9	-1%	-0.2%	-1.1%	-0.3
COc1ccc(-c2ccc(C(=O)Nc3cc(OC)c(OC)c(OC)c3)c3occc23)c(C)c1	/	/	/	/	8.2%	?	2.2
O=C(COc1cccc(NC(=O)c2ccccc2)c1)c1ccc(F)cc1	19%	4%[15.4 µM]	1.4	-13%	0.6%	?	-1.9
Cc1ccc(NC(=S)NCCc2ccc(S(N)(=O)=O)cc2)c(C)c1	/	12%	/	-9%	0.4%	-0.3%	-2.1
O=S(=O)(c1ccccc1)N1CCC2(CC1)CN(C(c1ccccc1)c1ccccc1)C2	9%	/	0.2	/	-0.9%	/	/
C=CCN(Cc1nc(-c2ccc(OC)c(OC)c2)oc1C)C1CCS(=O)(=O)C1 (stereo unspecified)	?	-1%[15.4 µM]	-4.5	-1%	0.6%	/	-1.8
CCOC(=O)c1cc2c(c(CCO)n1)[C@H](CCO)N(S(=O)(=O)C(C)(C)C)C2	/	/	/	11%	0.4%	-1.7%	0.8
COc1ccc(OC)c(N(CC(=O)N2CCCCC2)S(=O)(=O)c2ccc(OC)c(OC)c2)c1	8%	?	2.5	-13%	-1.2%	-0.6%	-0.8
[O-]/C(=C(\C(=S)Nc1ccc(SC(F)F)cc1)[n+]1ccccc1)c1cc(Cl)ccc1Cl	7%	-20%[15.4 µM]	2.8	?	5.5%	/	8.2
CC(=O)Nc1ccc(OCC(=O)NCc2ccccc2)cc1	-8%	3%	2.8	9%	1.1%	/	1.5
CCOc1ccc(N(CC(=O)NC(C)(C)C)C(=O)CCC(=O)Nc2nccs2)cc1	10%	-36%[15.4 µM]	0.8	-26%	0.2%	1.2%	-4.1
NC(=S)Nc1cccc2[nH]ncc12	7%	-29%	2.8	-2%	0.2%	3.1%	-4.2
COc1ccc(-c2noc3c2-c2nc(C(C)C)sc2CC3)cc1	/	29%	/	9%	1.3%	-0.2%	-0.3
CC1CCCC(C)N1C(=O)COC(=O)C12CC3CC(CC(Cl)(C3)C1)C2 (stereo unspecified)	/	2%	/	-1%	0.4%	2.4%	-1.7
Cc1nnc(NC(=O)c2cccc(S(=O)(=O)N3CCCC3)c2)s1	4%	-1%[15.4 µM]	2.1	-9%	0.6%	-21%	-3.5
CCC(=O)Nc1ccccc1C(=O)C(=O)Nc1ccccc1	-2%	-25%	2.3	-3%	0.6%	-0.6%	-0.8
CC(Nc1cc(N2CCN(S(C)(=O)=O)CC2)ccc1[N+](=O)[O-])c1ccccc1 (stereo unspecified)	-2%	26%	2.3	2%	-0.9%	-9.7%	-4.5
